Ecoli rRNA inh: reduced GFP signal of wild-type E. coli, primary screen, bacterial rRNA inhibitor project, GFP/RFP fluorescence, OD600, single point; E. coli WT GFP vs humanized-ribosome RFP mutants, 24 h; hits give low values; DMSO median 0, no signal -100; GFP signal change (wild-type ribosome), % (test concentration not listed); actives 1.6% (n = 350,000); AID 720706, 2013;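 active = significant combined selectivity score with lowered wild-type GFP, culture density cut under 30%, mutant RFP and density less affected; inactive = any of these conditions unmet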; also: one replicate is shown; some compounds called inactive have numbers as strong as hits
UCH37 DUB inh: inhibitors of human UCH37 deubiquitinase, primary screen, biochemical, Ub-AMC cleavage, fluorescence | Ubiquitin carboxyl-terminal hydrolase isozyme L5 (Homo sapiens), Q9Y5K5 | purified proteasome/UCH37 | inhibition, % (concentration not given with the values) | actives 0.33% (n = 330,000);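 active = mean of two replicates above 20%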;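 also: 0% = compound-free wells with enzyme and 100% = wells lacking proteasome; stock transfer was 100 nL into about 20 µL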
Target sequence (Q9Y5K5 whole entry, looked up): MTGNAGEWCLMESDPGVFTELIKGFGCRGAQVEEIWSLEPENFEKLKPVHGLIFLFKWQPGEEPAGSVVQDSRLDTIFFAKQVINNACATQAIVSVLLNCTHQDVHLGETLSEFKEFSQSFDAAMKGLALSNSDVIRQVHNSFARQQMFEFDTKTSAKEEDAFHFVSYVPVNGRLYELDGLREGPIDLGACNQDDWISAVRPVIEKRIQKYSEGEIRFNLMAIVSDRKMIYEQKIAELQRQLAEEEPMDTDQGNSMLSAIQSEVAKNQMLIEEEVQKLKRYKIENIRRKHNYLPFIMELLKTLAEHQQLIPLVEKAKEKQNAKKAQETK
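Material: human UCH37 enzyme supplied as purified proteasome complex. Measure: % inhibition of Ub-AMC cleavage fluorescence. Medium: pH 7.4 Tris-HCl (50 mM) with ovalbumin, ATP-MgCl2, DTT. Times: 30 min preincubation with enzyme, 25 min cleavage at room temperature. Detection: AMC fluorescence intensity at 355/460 nm.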
HNF4A DNA FP: change in binding of human HNF4A to DNA, primary screen, biochemical, fluorescence polarization, FITC-DNA | Hepatocyte nuclear factor 4-alpha (Homo sapiens), P41235 | 1 h | activity change, % at 10 µM | actives 0.3% (n = 360,000) | AID 1224865, 2016; in the data active = activity change above about 30%, passing the limit was not always enough;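 also: controls were the assay level and a saturating level of protein; the project sought stronger binding though the title names inhibitors; some compounds called inactive have numbers as strong as hits; positive values seem to mean higher polarization but the record does not say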
FGF22 binding: binders of human FGF22 protein, primary screen, FGF22 synaptogenesis inhibitor project, biophysical, thermal shift, single point | calls only at 9.99 µM | Fibroblast growth factor 22 (Homo sapiens), Q9HCT0 | actives 1.5% (n = 340,000) | recombinant FGF22 thermal shift, SYPRO orange fluorescence; percent of sucrose octasulfate shift, DMSO zero;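 active = melting point raised past a set limit in the mean and every replicate; three in four hits are not shown here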
ALR H2O2 inh: inhibitors of human ALR sulfhydryl oxidase, primary screen, biochemical, H2O2 detection, HRP-luminol luminescence, single point; FAD-linked sulfhydryl oxidase ALR (Homo sapiens), P55789; purified ALR, DTT oxidation; inhibition, % (concentration not given with the values); actives 3.8% (n = 290,000);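 active = mean and each replicate at 75% or more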;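 also: stock transfer was 7.5 nL into about 7.5 µL; 0% = neutral wells and 100% = wells with inactivated enzyme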
Target sequence (P55789 whole entry, looked up): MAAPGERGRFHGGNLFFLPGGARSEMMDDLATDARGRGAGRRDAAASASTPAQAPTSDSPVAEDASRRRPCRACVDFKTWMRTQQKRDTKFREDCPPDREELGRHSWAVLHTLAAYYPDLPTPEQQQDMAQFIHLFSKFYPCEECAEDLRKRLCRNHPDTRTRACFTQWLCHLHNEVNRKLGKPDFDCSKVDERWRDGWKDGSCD
E coli growth: E. coli growth inhibition, primary screen, OD600. Escherichia coli growth, 23 h; hits give low values. OD600 absorbance (no concentration beside the values). actives 0.21% (n = 330,000);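 active = OD600 absorbance below the run mean of sample wells minus 3.6 SD, in any replicate, cut at about 0.56 in these data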;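 also: stock transfer was 300 nL into about 60 µL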
Beta2AR agonist: beta2AR agonists driving receptor internalization, primary screen, cell-based, FAP fluorogen, flow cytometry; Beta-2 adrenergic receptor (Homo sapiens), P07550; Am2.2-beta2AR cells; reference of the scale not given here; response, % (concentration not given with the values); actives 0.43% (n = 340,000);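 active = response above a set limit, near 3 SD of response in nonfluorescent compounds, cut at about 42% in these data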;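 also: stock transfer was 100 nL into about 11 µL; a reference agonist was the positive control; negative values mostly stem from fluorescent compounds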
Target sequence (P07550 whole entry, looked up): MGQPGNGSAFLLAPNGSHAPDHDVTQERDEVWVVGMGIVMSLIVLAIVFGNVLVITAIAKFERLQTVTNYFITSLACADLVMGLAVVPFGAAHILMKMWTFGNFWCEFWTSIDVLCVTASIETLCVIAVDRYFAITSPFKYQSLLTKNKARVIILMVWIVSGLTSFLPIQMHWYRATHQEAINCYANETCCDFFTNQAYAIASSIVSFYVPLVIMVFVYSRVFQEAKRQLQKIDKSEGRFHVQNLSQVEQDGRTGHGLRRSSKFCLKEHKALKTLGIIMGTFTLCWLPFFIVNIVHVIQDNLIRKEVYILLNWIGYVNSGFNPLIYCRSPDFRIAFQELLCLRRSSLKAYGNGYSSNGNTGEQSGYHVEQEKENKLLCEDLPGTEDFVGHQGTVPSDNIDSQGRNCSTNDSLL
Ecoli rRNA inh OD600: also measured in Ecoli rRNA inh; calls as there; OD600 change, %; measured here: OD600 growth;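 optical density of the mix in the first replicate; 0 = DMSO median and -100 = no signal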
Ecoli rRNA inh RFP: further read-out of Ecoli rRNA inh, marked with its call; RFP signal change, %; measured here: RFP humanized mutant strains;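 first replicate; 0 = DMSO median and -100 = no signal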
Starred values were filed as active, the others as inactive; i = inactive; nt = not tested or not shown. Some of the compounds tested; rates above refer to the full screens.

Each structure is followed by: Ecoli rRNA inh, Ecoli rRNA inh OD600, Ecoli rRNA inh RFP, UCH37 DUB inh, HNF4A DNA FP, FGF22 binding, ALR H2O2 inh, E coli growth, Beta2AR agonist
- CC(=O)c1cn(CCOc2ccccc2C)c2ccccc12
    -12, -6, -1.5, -1.4, -1.9, i, -22, 0.71, 7
- Cc1cccc(-c2nc(C#N)c(N3CCCCC3)o2)c1
    15, 15, -1.2, -71, -1.3, i, -9, 0.66, 0
- O=C(O)c1ccc(Oc2c(C(F)(F)F)oc3cc(O)ccc3c2=O)cc1
    1, -7, 4.9, 5.8, -3.9, i, -7, 0.71, 18
- O=C(c1cccc([N+](=O)[O-])c1)N1CCN(c2ccccn2)CC1
    -1, -6, -3.6, 3.4, -1.2, i, -2, 0.73, -3
- COc1ccc(N2CCN(CC(O)COc3ccc4c(c3)CCC4)CC2)cc1 (stereo not drawn)
    nt, nt, nt, 2.2, 6.0, nt, 97*, 0.65, -3
- Nc1nc(-c2cccnc2)nc2sc3c(c12)CCCC3
    -1, -3, -2.4, -18, -3.9, nt, nt, 0.7, -6
- N=C1C(=O)OCC1c1ccccc1NC(=O)c1ccccc1 (stereo not drawn)
    9, 5, 6.7, 2.9, -1.5, i, -3, 0.68, -2
- CCOC(=O)c1[nH]c(C)c(C(=O)NCc2ccc(C)cc2)c1C
    8, 14, -1.6, 0.3, -2.5, i, -3, 0.73, -3
- O=C(COC(=O)C1CC1)Nc1ccc2c(c1)OCO2
    23, 17, 3.1, 4.0, 5.1, i, -4, 0.7, 1
- CCCCn1c(N)c(N(CCOC)C(=O)CN2C(=O)NC3(CC(C)CC(C)(C)C3)C2=O)c(=O)[nH]c1=O (stereo not drawn)
    11, 9, -1.9, 2.8, 5.0, i, nt, 0.62, 13
- COc1ccc(S(=O)(=O)N2CCOC2CNC(=O)C(=O)NCc2ccc3c(c2)OCO3)cc1OC (stereo not drawn)
    2, 6, 1.6, 1.9, 3.7, i, -3, 0.7, -4
- Cc1ccc(CN2C(=O)NC(Cc3c[nH]c4ccccc34)C2=O)cc1 (stereo not drawn)
    nt, nt, nt, 3.3, 5.7, nt, 2, 0.7, 11
- CCC(C)NS(=O)(=O)c1ccc(OCC(=O)NCc2ccc3c(c2)OCO3)cc1 (stereo not drawn)
    nt, nt, nt, 2.5, -2.6, nt, 3, 0.74, 0
- CC(C)c1nnc(NC(=O)COc2ccccc2[N+](=O)[O-])s1
    6, 5, -1.3, 2.3, 1.4, i, -1, 0.67, -1
- Cc1ccc(NS(=O)(=O)c2ccc(Cl)c(NC(=S)NC(=O)C3CCCCC3)c2)cc1Cl
    nt, nt, nt, 3.1, -1.4, nt, 2, 0.69, 9

Next entries follow.
Each structure is followed by: Ecoli rRNA inh, Ecoli rRNA inh OD600, Ecoli rRNA inh RFP, UCH37 DUB inh, HNF4A DNA FP, FGF22 binding, ALR H2O2 inh, E coli growth, Beta2AR agonist
- COc1ccc(CCN2CC(C(=O)N3CCCCCC3)CCC2=O)cc1 (stereo not drawn)
    23, 17, 1.3, 0.8, 2.1, i, -14, 0.72, 0
- O=C(NCC1CCOCC1)c1cc(COc2ccc(F)cc2F)on1
    6, 10, 1.8, -0.8, -3.1, i, -2, 0.66, 6
- Cc1cc(OCC(=O)NCC2CCC(C(=O)O)CC2)c2c(C)c(Cc3ccccc3)c(=O)oc2c1 (stereo not drawn)
    nt, nt, nt, -113, 4.9, i, 4, 0.65, -4
- COCCn1c(SCC(=O)N2CCCC2)nnc1C(C)C
    nt, nt, nt, 2.9, 3.3, nt, -4, 0.73, -5
- COc1ccc(CCNC(=O)c2cnc3scc(C)n3c2=O)cc1OC
    -10, -13, 3.1, -16, -0.8, i, nt, 0.73, -4
- CCc1ccc(/C=N/NC(=O)c2cc(C)on2)s1
    -1, 12, -4.6, nt, 0.7, i, -2, nt, -7
- CCn1c(/C=C/c2ccc(F)cc2)nc2ccccc2c1=O
    3, 11, 0.2, 6.5, 1.0, i, 1, 0.67, -2
- CC(C)CN1CC(Br)C(=O)NC1=O (stereo not drawn)
    17, 15, 1.4, 2.3, 1.6, i, nt, 0.67, 1
- CCc1nn(CC(=O)NCCCN2CCOCC2)c(=O)c2cc3c(OC)cccc3n12
    13, 2, 1.7, nt, 0.9, i, nt, nt, 3
- O=C(CN1CCCC1)Nc1c(Cl)cccc1Cl
    12, 16, 0.7, 0.9, -4.7, nt, -21, 0.7, -3
- Cc1cccc(C2c3[nH]c4ccccc4c3CCN2C(=O)Cc2nc(-c3ccccc3)n[nH]2)n1 (stereo not drawn)
    3, -2, 4.0, -0.3, 2.4, nt, -25, 0.63, -5
- COCCNC(=O)CNC(=O)c1nn(-c2ccc(OC)c(Cl)c2)c(=O)c2ccccc12
    nt, nt, nt, -1.3, 5.0, nt, -17, 0.72, 4
- CCCc1nnc2n1N=C(c1ccc(OC)c(OC)c1)CS2
    -5, 0, 0.1, 7.9, 7.5, i, -2, 0.64, 5
- O=C(Nc1nccs1)c1ccc(S(=O)(=O)N2CCCCC2)cc1
    -3, -11, 2.0, 3.5, -1.7, i, -13, 0.7, -1
- C[n+]1ccc(C(=O)N/N=C/c2ccco2)cc1
    10, 15, 0.4, nt, -0.7, i, -9, nt, 2

Gathered by group: the compounds so far containing a nitro group on carbon
Each structure is followed by: Ecoli rRNA inh, Ecoli rRNA inh OD600, Ecoli rRNA inh RFP, UCH37 DUB inh, HNF4A DNA FP, FGF22 binding, ALR H2O2 inh, E coli growth, Beta2AR agonist
- O=C(c1cccc([N+](=O)[O-])c1)N1CCN(c2ccccn2)CC1
    -1, -6, -3.6, 3.4, -1.2, i, -2, 0.73, -3
- CC(C)c1nnc(NC(=O)COc2ccccc2[N+](=O)[O-])s1
    6, 5, -1.3, 2.3, 1.4, i, -1, 0.67, -1

(continued)
Each structure is followed by: Ecoli rRNA inh, Ecoli rRNA inh OD600, Ecoli rRNA inh RFP, UCH37 DUB inh, HNF4A DNA FP, FGF22 binding, ALR H2O2 inh, E coli growth, Beta2AR agonist
- COc1ccc(S(=O)(=O)N2CCCCCC2)cc1C(=O)OCc1c(C)noc1C
    nt, nt, nt, 2.9, -0.1, nt, -18, 0.73, 3
- COC(=O)c1ccc(NC(=O)CSc2nncn2C)cc1
    nt, nt, nt, 1.6, 1.2, nt, -4, 0.76, 1
- O=C(c1ccc(F)cc1)N1CCC(C(=O)N2CCCc3ccccc32)CC1
    3, 12, -0.5, nt, -6.0, i, nt, nt, nt
- CN(C)c1ccsc1C(=O)NNS(=O)(=O)c1ccc(Cl)cc1
    -1, -5, 3.2, 7.7, -2.8, i, nt, 0.67, 1
- O=C(NNc1nc2cc3c(cc2s1)OCCO3)c1ccc(F)cc1
    -38, -58, -6.3, 1.1, -0.2, i, 31, 0.62, -2
- Cc1ccc(NC(=O)CSc2nnc(-c3ccncc3)o2)cc1C
    -12, -16, -0.5, 1.8, 0.6, i, -6, 0.66, 6
- O=C(O)c1ccc(NCc2cccnc2)cc1
    nt, nt, nt, 1.1, 0.9, nt, -28, 0.66, 3
- COc1cc(/C=N/N2CCN(c3ccccc3OC)CC2)ccc1O
    nt, nt, nt, nt, -1.4, nt, 99*, nt, 3
- CC1CC(C)(C)OC(C[N+]2(C)CCCCC2)O1 (stereo not drawn)
    22, -5, 0.6, 4.3, -3.1, i, -26, 0.61, -3
- CCCN(C)C1CN(Cc2cn(CCCOC)nn2)S(=O)(=O)C1 (stereo not drawn)
    5, 7, -2.4, nt, 1.1, i, nt, nt, nt
- CCOC(=O)/C=C1/SCC(=O)N1Cc1ccc(Br)cc1
    -2, 6, 3.0, 0.3, 1.3, nt, nt, 0.67, -6
- Cc1cccc(NC(=O)CSc2nc(C)c(CC(=O)c3ccc(Br)cc3)c(C)c2C#N)c1C
    nt, nt, nt, -3.4, 1.4, nt, -1, 0.79, 4
- CC(C(=O)NC1(C#N)CCCCC1)N(C)CC(=O)Nc1ccc(Cl)c(Cl)c1 (stereo not drawn)
    -69, -82, -25, 2.0, 0.8, i, -2, 0.68, 13
- Cc1cc(=O)n(-c2ccccc2)n1C
    7, 11, -1.2, 0.4, 0.5, i, nt, 0.75, -7
- COc1ccc(CN(Cc2ccccn2)S(=O)(=O)c2ccc(-n3cnnn3)c(OC)c2)cc1
    5, -1, -1.6, -0.9, -1.4, nt, -6, 0.7, -6

The list continues.
Each structure is followed by: Ecoli rRNA inh, Ecoli rRNA inh OD600, Ecoli rRNA inh RFP, UCH37 DUB inh, HNF4A DNA FP, FGF22 binding, ALR H2O2 inh, E coli growth, Beta2AR agonist
- CCOC(=O)c1c(NC(=O)c2cccc(N3C(=O)CCC3=O)c2)sc2c1CCN(CC)C2
    -8, 10, 11, 3.2, 19, i, -4, 0.69, -10
- CCCCn1nc(CC(=O)O)c2ccccc2c1=O
    nt, nt, nt, 0.4, -1.3, nt, 23, 0.65, -3
- Cc1nn(C)c(C)c1C(=O)NN
    nt, nt, nt, -0.5, 2.1, nt, 20, 0.7, 7
- Cn1c(=O)n(C)c2cc(C(=O)Nc3ccc(Br)cc3)ccc21
    7, 11, 0.7, 1.6, -1.9, i, -2, 0.7, 33
- Cc1cc(C)c2c(=O)[nH]c(SCC(=O)NCCc3ccccc3)nc2n1
    nt, nt, nt, -20, -0.2, nt, -7, 0.66, 6
- Cc1ccc(C(C)C)c(OCC(=O)N2CCOCC2)c1
    nt, nt, nt, 1.4, -0.3, nt, 3, 0.69, -1
- CCN(CC)S(=O)(=O)c1cccc(NC(=O)C2SC(=Nc3ccc(C)cc3C)C(C(=O)NC(C)COC)=C2N)c1 (stereo not drawn)
    nt, nt, nt, -3.4, -2.3, nt, -8, 0.74, 9
- Cc1ccc(C(=O)Nc2cc3c(cc2Cl)OCCCO3)cc1
    nt, nt, nt, 6.0, -2.3, nt, nt, 0.65, -17
- O=c1cc(C(F)(F)F)[nH]c(=S)n1-c1ccccc1
    7, 3, -2.2, 7.3, 1.7, i, -1, 0.69, -11
- O=C(NC1CCCC1)C1CCC(CNS(=O)(=O)c2ccc(F)cc2)CC1 (stereo not drawn)
    7, 12, -2.2, 2.8, 0.4, i, 0, 0.73, -9
- CCC(C(=O)NC1CCCC1)N(Cc1cccs1)C(=O)Cn1nnc(-c2ccc(OC)c(OC)c2)n1 (stereo not drawn)
    nt, nt, nt, 5.1, -1.9, nt, -1, 0.7, -4
- COCCCNC(=O)CSc1ccc(Cl)cc1
    nt, nt, nt, 2.4, 3.2, nt, -14, 0.73, 0
- Cc1ccc(N2CC(C(=O)N/N=C/c3sccc3C)CC2=O)cc1 (stereo not drawn)
    nt, nt, nt, nt, -2.1, nt, -2, nt, 0
- OCCOCCOc1ccc(-c2nn[nH]n2)cc1
    19, 20, 2.4, 0.6, 2.2, nt, 1, 0.65, 1
- COc1cccc(COc2cc3ccccc3nc2C)c1
    nt, nt, nt, 1.8, 1.1, nt, -1, 0.67, 3

Screening results as filed in PubChem.
